CBX7 AlphaScr: blocks human CBX7 binding to H3K27me3 peptide; AlphaScreen His6-CBX7 / biotin-H3K27me3 peptide binding; hits give low values; normalised signal (fraction of DMSO) (test concentration not listed); 66,000 tested, 1.1% active; in the data active = normalised signal below about 0.5;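 note: 100 nL library stock added to about 20 µL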
Target sequence (O95931 whole entry, looked up): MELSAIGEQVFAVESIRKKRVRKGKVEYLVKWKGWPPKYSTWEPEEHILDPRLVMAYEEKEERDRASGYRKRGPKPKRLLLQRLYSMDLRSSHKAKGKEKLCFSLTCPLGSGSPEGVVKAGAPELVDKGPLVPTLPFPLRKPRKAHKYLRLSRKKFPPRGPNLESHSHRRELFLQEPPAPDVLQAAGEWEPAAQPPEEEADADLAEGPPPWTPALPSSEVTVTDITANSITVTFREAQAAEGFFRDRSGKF
CBX7 AlphaScr z-score: also measured in CBX7 AlphaScr; calls as there; z-score; measured here: z-score of CBX7 signal; some inactives read as strong as hits; reference of the scale not given here;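 same signal on another scale; lower means less binding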
The depositor's hits bear a star. Not all compounds are listed; count on the stated rates, not on these rows.

SMILES	CBX7 AlphaScr	CBX7 AlphaScr z-score
N#Cc1nc(COc2ccccc2)oc1NCc1ccc2c(c1)OCO2	0.89	-4.8
COc1ccc(Cl)cc1NC(=O)c1oc2ccc(S(=O)(=O)N(C)C3CCCCC3)cc2c1C	1.1	2.5
Cc1ccc(C(=O)Nc2c3c(nn2-c2ccc(C)cc2)CS(=O)(=O)C3)cc1	1.1	0.41
Cc1c(C(=O)NC2CCCc3ccccc32)oc2ccc(S(=O)(=O)N(C)C3CCCCC3)cc12 (stereo not drawn)	0.83	-1.6
COc1ccc(-c2cc3nc(C)c(CCC(=O)Nc4ccc(C)cc4)c(C)n3n2)c(OC)c1	1.1	0.76
COc1ccc(-n2c3c(cc(C(=O)NCCO)c2=O)C(=O)CC(C)(C)C3)cc1	0.98	-0.43
COc1ccc2nc(SCC(=O)Nc3ccc(NC(C)=O)cc3)[nH]c2c1	1	0.019
CN1C(=O)CSc2ccc(NC(=O)NCc3ccc(F)cc3)cc21	0.97	-1.4
Fc1ccc(OCc2nn3c(-c4ccccc4Cl)nnc3s2)cc1	1	1.5
O=c1cc(-c2ccccc2)nc(Nc2nc3ccccc3o2)[nH]1	1.5	5.8
COc1ccccc1OCC(=O)N(Cc1ccc(N(C)C)cc1)C1CCS(=O)(=O)C1 (stereo not drawn)	1.1	1.3
O=C(Nc1cccnc1)c1cc(-c2ccc(F)cc2)on1	1	2.2
CCC(=O)N1CCc2cc(S(=O)(=O)NC(C(=O)NC3CCCc4ccccc43)C(C)C)ccc21 (stereo not drawn)	1	0.86
Cc1cc(N2CCN(C)CC2)nc2ccc(NC(=O)CCC(=O)NCc3cccs3)cc12	1.1	1.1
CC1CCN(C2CC(=O)N(c3ccc(F)cc3)C2=O)CC1 (stereo not drawn)	1	0.49
COc1ccccc1CNC(=O)c1ccc2c(c1)N(Cc1ccc(F)cc1)C(=O)CS2	0.84	-1.6
CCOC(=O)c1cc(-c2ccccc2)n(CCC(=O)Nc2ccc(OC)c(OC)c2)c1C	0.9	-3.1
CN(C)CCCNc1ncnc2c1cnn2-c1ccc(Cl)cc1	1.4	0.38
Cc1ccc(-c2nc3ccccc3s2)cc1NC(=O)c1ccccc1	1	0.98
COc1cc(OC)cc(C(=O)Nc2c3c(nn2-c2cccc(Cl)c2)CSC3)c1	1.1	1.4
O=C(CSc1nccn1-c1ccccc1)Nc1ccccc1C(F)(F)F	0.79	-4.6
O=C1CCc2cc(S(=O)(=O)NC(Cc3ccccc3)C(=O)Nc3ccc(Cl)cc3)ccc2N1 (stereo not drawn)	1	0.31
Cc1ccc(-c2nc(CS(=O)(=O)CC(=O)NC3CC3)c(C)o2)cc1	1.1	0.22
COc1ccc(OC)c(NC(=O)c2c(NCc3cccnc3)sc3c2CCC(C)C3)c1 (stereo not drawn)	0.65	-18
O=c1cc(Cc2nnc(SCc3ccc(Br)cc3)n2-c2ccccc2)[nH]c(=O)[nH]1	0.99	-0.34
Next structures
SMILES	CBX7 AlphaScr	CBX7 AlphaScr z-score
N#Cc1nc(COc2ccc(Cl)cc2)oc1NCCCn1ccnc1	0.9	-4.6
CCNc1c2c(nc3ccccc13)CC(C)(C)CC2=O	0.93	-1.1
COc1cc2c(C(=O)N3CCCC3)cn(CC(C)C)c(=O)c2cc1OC	1.1	1.2
CCC(=O)N1CCc2cc(S(=O)(=O)NC(C(=O)NCCc3ccc(C)cc3)C(C)C)ccc21 (stereo not drawn)	0.92	-1.5
CCCC(CCC)C(=O)Nc1ccc2c(c1)Nc1ccccc1CC2	0.96	-1.2
Cc1cc(N2CCOCC2)nc2ccc(NC(=O)c3cccc(F)c3)cc12	0.97	-0.22
Cc1cccc(C(=O)Nc2c(C(=O)Nc3cccc4ccccc34)cnn2-c2ccccc2)c1	1.1	0.52
Cc1ccc(-c2noc(CN3CCN(c4ccccc4)CC3)n2)cc1	0.98	-0.43
Cc1c(C(=O)Nc2c(F)cccc2F)sc2ncnc(N3CCN(c4ccccc4F)CC3)c12	0.95	-0.68
O=c1[nH]c(CSc2nnc(-c3ccncc3)n2-c2ccccc2)nc2ccccc12	0.94	-0.46
CC1CCCC(C)N1CCNC(=O)CCn1nc(-c2ccccc2)ccc1=O (stereo not drawn)	1.2	0.41
CCOC(=O)c1cccc(NS(=O)(=O)c2ccc3c(c2)CCN3C(=O)C2CC2)c1	0.98	-0.38
O=C(CSc1nccn1Cc1ccccc1)c1ccc(F)cc1	0.83	-2.7
COc1ccc(-c2nc3ccccc3nc2-c2ccc(OC)c(OC)c2)cc1OC	1.1	1.9
COc1ccc(C)cc1Nc1cc(C)nc2ncnn12	0.97	-0.89
COc1cccc(C(=O)NCCc2c(C)[nH]c3ccccc23)c1	1.2	2.2
Cc1ccc(-n2nc(C)c3c(C)c(CCC(=O)NCc4ccc5c(c4)OCO5)c(C)nc32)cc1	1.2	1.7
O=C1c2ccccc2C(=O)N1c1ccc(Cl)cc1	1	0.66
O=C(Nc1cccc(Cl)c1)c1cnn2cccnc12	1.1	2.1
CC1CCCCC1NC(=O)CN1CCN(Cc2ccccc2Cl)C1=O (stereo not drawn)	1	0.32
Cc1cccn2c(NC(=O)c3ccc(Cl)cc3)c(-c3cccs3)nc12	1	0.57
Cc1ccc(-n2nc3c(c2NC(=O)c2c(-c4ccccc4Cl)noc2C)CSC3)c(C)c1	0.99	-0.24
CC1CCN(CCNC(=O)c2ccc3c(=O)n(CCc4ccccc4)c(=O)[nH]c3c2)CC1	0.98	-0.71
Fc1ccccc1-c1nc(N2CCc3ccccc3C2)c2ccccc2n1	1.1	1.9
Cc1sc2ncn(CC(=O)NCC(=O)Nc3ccc(F)cc3)c(=O)c2c1C	1.1	2.9

A stretch from the list above, for reference:
SMILES	CBX7 AlphaScr	CBX7 AlphaScr z-score
O=C(Nc1cccc(Cl)c1)c1cnn2cccnc12	1.1	2.1
CC1CCCCC1NC(=O)CN1CCN(Cc2ccccc2Cl)C1=O (stereo not drawn)	1	0.32

Carrying on.
SMILES	CBX7 AlphaScr	CBX7 AlphaScr z-score
COc1ccc(OC)c(-c2cc(C(=O)Nc3ccc(C#N)cc3)no2)c1	1	0.27
Cc1ccc(-c2nc3ccccc3[nH]2)cc1NC(=O)COc1ccccc1C	1.1	0.93
Cc1cc(Cl)ccc1OCCCC(=O)Nc1nn[nH]n1	0.5	-1.4
CCCn1c(SCCOc2ccccc2OC)nc2ccccc21	0.97	-0.69
Cc1ccc(Cn2nnc3c(=O)n(CC(=O)Nc4cccc(Cl)c4)cnc32)cc1	0.87	-2.2
CC1CC(C)CN(S(=O)(=O)c2ccc3[nH]cc(C(=O)O)c(=O)c3c2)C1 (stereo not drawn)	0.95	-1.4
CC(C)(C)OC(=O)N1CCC(c2c(C(=O)Nc3ccc(Br)cc3F)cnn2-c2ccccc2)CC1	0.9	-2.4
Cc1nc2c(C(=O)NC3CCCC(C)C3C)cnn2c(C)c1Cc1ccc(F)cc1 (stereo not drawn)	0.97	-0.75
COc1ccc(C(O)(CCc2ccccc2)CCN2CCCCC2)cc1 (stereo not drawn)	1	-0.12
CCNc1ccccc1-c1nc2ccccc2[nH]c1=O	1.1	0.57
Cc1ccc2oc(-c3ccc(NC(=O)c4cccc(F)c4)cc3)nc2c1	0.78	-2.3
C=CCOc1ccc(C(=O)N(Cc2cccs2)C2CCS(=O)(=O)C2)cc1 (stereo not drawn)	1.1	0.93
COc1cccc(-c2nc(CS(=O)(=O)CC(=O)N3CCc4ccccc4C3)c(C)o2)c1	0.98	-0.84
Cc1ccc(CNC(=O)C(Cc2ccccc2)NS(=O)(=O)c2ccc3c(c2)CCC(=O)N3)cc1 (stereo not drawn)	1	0.44
Cc1nc(N2CCCCC2C)c2c(C)c(C(=O)Nc3ccc4c(c3)OCO4)sc2n1 (stereo not drawn)	0.94	-1.9
O=C(Nc1ccc2snnc2c1)N1CCSCC1	1.1	2.6
O=C(NCCN1CCCC1)c1cc(-c2ccncc2)nc2ccccc12	1	1.4
Cc1ccc(CSc2nc3ccncc3n2CC(=O)Nc2ccccc2C(F)(F)F)cc1	1.1	0.84
CCCNC(=O)CSc1nc2nc(C)c(Cc3cccc(C)c3)c(C)n2n1	1.2	1.3
CCOc1ccc(S(N)(=O)=O)cc1-c1nc2c(C(C)(C)C)nn(C)c2c(=O)[nH]1	0.98	-0.22
Cc1c2c3c(cccc3n1C)C1(C)N(CC2)C(=O)OC1(C)C (stereo not drawn)	0.96	-1.2
COc1ccc(N2CCN(c3cc(=O)n(-c4ccccc4Cl)c(=O)[nH]3)CC2)cc1	1	-0.094
Cn1cc(CCC(=O)NC2CCCCC2)c2ccccc21	0.92	-0.85
Cc1nnc2ccc(N3CCC4(CC3)OCCO4)nn12	1	0.31
c1ccc(CN2CCN(c3nc4ccccc4c4nc(-c5ccccc5)nn34)CC2)cc1	1.1	1.5
The results go on.
SMILES	CBX7 AlphaScr	CBX7 AlphaScr z-score
Cc1ccc(N2C(=O)c3ccccc3C2Nc2c(C)cccc2C)nc1 (stereo not drawn)	1	0.53
O=C(NCc1ccccc1)c1csc2c1CCCC2	0.97	-0.72
CCOc1ccc(C(=O)NCCc2cc3ccc(OC)cc3[nH]c2=O)cc1	0.97	-1.1
CC(C(=O)NCC1(c2ccccc2)CCCC1)N1CCCC1 (stereo not drawn)	1	0.36
CCOC(=O)c1sc2nc(C)n(CC(=O)Nc3cccc(C)c3)c(=O)c2c1C	0.97	-0.72
CCCCNC(=O)c1c[nH]c2ccc(S(=O)(=O)Nc3ccccc3F)cc2c1=O	0.98	-0.4
O=C(NCCc1ccccc1)c1cc(-c2ccc(O)cc2)on1	1	1.1
O=C(Cn1c(SCc2ccc(F)cc2)nc2ccncc21)Nc1ccc(Br)cc1F	0.89	-5.4
COc1ccc(C2CC(=O)N(CC(=O)N3CCCC3)c3ccccc3S2)cc1OC (stereo not drawn)	0.95	-0.7
Cc1cc(C)c(C#N)c(Nc2cccc(Br)c2)n1	1.1	2.6
CC(=O)N1CCc2cc(S(=O)(=O)Nc3c(C)cccc3C)ccc21	1.1	2.3
CC(C(=O)NCCc1c[nH]c2ccccc12)N1C(=O)CC(C)(C)Sc2ccccc21 (stereo not drawn)	0.93	-2.3
Cc1oc(-c2ccccc2Cl)nc1CSCC(=O)NC1CCCC(C)C1C (stereo not drawn)	1.1	1.4
Cn1c(SCC(=O)NCc2ccc3c(c2)OCO3)nnc1-c1c[nH]c2ccccc12	1	-0.029
O=C1CCc2cc(S(=O)(=O)N3CCC(C(=O)NCc4ccccn4)CC3)ccc2N1	0.82	-3
O=C(NCc1ccccc1Cl)c1csc2c1CCCCC2	1.1	1.7
C=CCN1N=C(NC(=O)c2cccc(Br)c2)SC(C)=C1c1ccc(Cl)cc1	0.95	-1.1
Cc1ccc(NC(=O)c2cnn(-c3ccccc3)c2NC(=O)c2ccc(C)cc2)cc1	0.83	-2.7
COCCCNC(=O)c1cnc(Nc2ccccc2OC)c2ccccc12	1.2	1.5
CN1CCN(c2nc3ccccc3nc2NS(=O)(=O)c2ccccc2)CC1	0.98	-0.67
COc1ccc(Nc2ncc(C(=O)N3CCC(C)CC3)c3ccccc23)cc1	0.84	-2.7
Cc1cccc(-n2c(Cc3cc(=O)[nH]c(=O)[nH]3)nnc2SCC(=O)Nc2ccc(C)c(Cl)c2)c1	1	0.76
CC1CCN(C(=O)Cn2cnc3ccc(S(=O)(=O)N4CCC(C)CC4)cc3c2=O)CC1	1.1	0.88
COc1ccccc1CNC(=O)Cn1nc(Cc2cccnc2)c2ccccc2c1=O	1	-0.038
CCn1cc(C(=O)NCc2ccc(F)cc2)c2cc(OC)c(OC)cc2c1=O	1	0.029

Part of the list above in order of molecular weight, lowest first.
SMILES	CBX7 AlphaScr	CBX7 AlphaScr z-score
Cc1oc(-c2ccccc2Cl)nc1CSCC(=O)NC1CCCC(C)C1C (stereo not drawn)	1.1	1.4
CCCCNC(=O)c1c[nH]c2ccc(S(=O)(=O)Nc3ccccc3F)cc2c1=O	0.98	-0.4
COc1ccc(C2CC(=O)N(CC(=O)N3CCCC3)c3ccccc3S2)cc1OC (stereo not drawn)	0.95	-0.7
O=C(Cn1c(SCc2ccc(F)cc2)nc2ccncc21)Nc1ccc(Br)cc1F	0.89	-5.4

(more compounds)
SMILES	CBX7 AlphaScr	CBX7 AlphaScr z-score
CCC(=O)N1CCc2cc(S(=O)(=O)NCCN3CCN(Cc4ccccc4)CC3)ccc21	1.1	1.1
Cc1ccc(OCc2nc3ccccc3n2CCC(C)C)cc1	0.93	-2
Cc1cccc(C)c1Nc1c(-c2ccsc2)nc2sccn12	0.78	-2.6
CCOc1cc2c(cc1OCC)C(c1ccc(C)cc1)NCC2 (stereo not drawn)	1.2	1.7
O=C(CCn1nc(-c2ccc(Cl)cc2)ccc1=O)NCc1ccccn1	0.7	-3.6
Cc1ccc(Nc2c(-c3cccc(Br)c3)nc3ccccn23)cc1	1	0.17
Cc1ccc(-c2nc3ccc(C)cn3c2NC(=O)c2ccccc2)cc1	0.97	-0.85
CCC(CC)Nc1ncc(C(=O)OC)c2ccccc12	1.4	8.8
Cc1c(C(=O)Nc2ccc(C(F)(F)F)cc2)sc2ncn(Cc3ccccc3Cl)c(=O)c12	1	0.29
Cc1ccc(-c2nnn(CC(=O)Nc3ccc4c(c3)OCCO4)n2)cc1	1.1	1.8
COc1ccc(-c2nc3cc(C)ccn3c2NC(=O)c2ccc3ccccc3c2)cc1	0.81	-5.6
CCOC(=O)N1CCC(Nc2c(N3CCC(Cc4ccccc4)CC3)c(=O)c2=O)CC1	0.99	-0.063

Reformatted with values under each structure: entries from further up.
Second line of a record – CBX7 AlphaScr	CBX7 AlphaScr z-score
> Cc1cccc(C)c1Nc1c(-c2ccsc2)nc2sccn12
    0.78	-2.6
> CCOc1cc2c(cc1OCC)C(c1ccc(C)cc1)NCC2 (stereo not drawn)
    1.2	1.7
> O=C(CCn1nc(-c2ccc(Cl)cc2)ccc1=O)NCc1ccccn1
    0.7	-3.6
> Cc1ccc(Nc2c(-c3cccc(Br)c3)nc3ccccn23)cc1
    1	0.17
> Cc1ccc(-c2nc3ccc(C)cn3c2NC(=O)c2ccccc2)cc1
    0.97	-0.85
> CCC(CC)Nc1ncc(C(=O)OC)c2ccccc12
    1.4	8.8
